TRPML1 ag: qHTS for Agonists of the Human Mucolipin Transient Receptor Potential 1 (TRPML1). Mucolipin-1 (Homo sapiens), Q9GZU1. TRPML1-expressing cells, Ca2+ dye fluorescence, FDSS; host cell line not named in the record; reference of the full effect not given here. activation, % (no concentration beside the values). actives 0.12% (n = 410,000). AID 624414, 2012; in the data active = activation above about 50%; inconclusive = about 30% to 50%; inactive = below about 30%; note: 0% is about no effect; the text of the record puts the active cut at 80%
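Tetracycline-induced TRPML1-DL cells are seeded and incubated overnight before loading with a no-wash Ca2+ dye and quencher. Agonist activity is taken from the 110 s fluorescence read following compound pin-transfer on an FDSS, before EC80 54-4 challenge.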
TRPML1 inh: qHTS for Inhibitors of the Human Mucolipin Transient Receptor Potential 1 (TRPML1); AID 624415, 2012; activity change, negative = inhibition, % (concentration not given with the values); Mucolipin-1 (Homo sapiens), Q9GZU1; actives 0.02% (n = 390,000); TRPML1-inducible cells, Ca2+ dye fluorescence, FDSS; stronger effect = lower value; inhibition of EC80 agonist-evoked calcium signal; in the data active means activity change below about -50%; inconclusive means about -30% to -50%; inactive means above about -30%;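 note: stimulus is agonist 54-4 at its EC80 concentration; % is set by controls: 0 for no effect and ±100 for the full control effect; compound concentration not given in the record; the text of the record puts the active cut at -80%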
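TRPML1-DL cells, Tet-induced overnight (~16 h, 37 °C) at 1,500 cells/well, were loaded with Ca8 no-wash dye plus quencher for 45-90 min at room temperature. Compounds were pinned during FDSS kinetic reading; agonist 54-4 at EC80 (4 uM final) then added.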
TRPV1 PAM: HTS Assay for Compounds that Act as Potentiators of the Vanilloid Receptor 1; TRPV1-expressing cells, Fluo-8 calcium influx, capsaicin EC20 potentiation; host cell line not named in the record; control for the full effect not named in the record; actives 0.02% (n = 320,000); potentiation, % at 8.33 µM; Transient receptor potential cation channel subfamily V member 1 (Homo sapiens), Q8NER1; active means potentiation above 80%; inconclusive means 30% to 80%; inactive means below 30%; note: 0% is about no effect
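TRPV1-expressing cells were cultured overnight at 35.5C and loaded with Fluo-8 calcium dye for 40 to 90 min at room temperature. After a 10 s baseline, compound was added and calcium influx was read kinetically for 3 min (ex 480/em 520 nm).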
The depositor's hits bear a star; / = not tested or not shown; & = joins results of further samples.

SMILES	TRPML1 ag	TRPML1 inh	TRPV1 PAM
COc1ccc(/C=C/C(=O)Nc2ccccc2C(=O)O)cc1OC	/	/	7&-8
Cc1cc(CC(C)CC(C)(C)C)n(O)c(=O)c1 (configuration not stated)	30	/	/
CCCCCCCCCCCCCCC[C@H](O)[C@H](N)CO	-0.4	/	/
CCOC(=O)N1CCc2c(sc3c2c(=O)n(Cc2ccccc2)c(=O)n3CC(=O)Nc2ccc(F)cc2)C1	1.0	-10	/
COc1ccc(CNC(=O)C2CCCN(c3nnc(C)c4c(C)n(-c5ccc(C)cc5)nc34)C2)cc1 (configuration not stated)	2.1	18	/
COc1ccc(-n2ccn(CC(=O)Nc3ccc(C)c(C)c3)c(=O)c2=O)cc1OC	-0.1	34	/
COc1ccc(CC(=O)NCC(c2cccs2)S(=O)(=O)c2ccc(Cl)cc2)cc1 (configuration not stated)	0.1	21	/
O=C(NCc1ccco1)c1ccc2c(c1)N(Cc1cccc(Cl)c1)C(=O)c1ccccc1S2=O (configuration not stated)	2.2	-6	/
CCN1CCN(CCCNC(=O)c2cc3c(s2)-c2c(C)cccc2OC3)CC1	1.4	-15	/
O=C(CC1N=C2c3ccccc3N=C(SCc3ccc(F)cc3)N2C1=O)NC1CCCCC1 (configuration not stated)	2.2	-5	/
CCCNC(=O)C1CCC(Cn2c(=O)c3sccc3n(CC(=O)NCc3ccccc3)c2=O)CC1 (configuration not stated)	1.3	-6	/
COc1ccc(CCNc2nc(SCc3ccccc3Cl)nc3ccccc23)cc1OC	2.9	5	/
Cc1ccc(C)c(NC(=O)Cn2cc(C(=O)c3ccco3)c3ccccc32)c1	0.2	-14	/
Cc1[nH]n2c(=O)cc(-c3ccc(Cl)cc3)nc2c1-c1ccccc1	0.6	15	/
COc1cc(C(c2c(C)[nH][nH]c2=O)c2c(C)[nH][nH]c2=O)ccc1OC(=O)c1ccccc1F	-0.5	-8	/
CCc1nnc(NC(=O)CSc2nc3c([nH]c4ccccc43)c(=O)n2-c2ccc(OC)cc2)s1	2.3	34	/
CCOCCCNC(=O)C(=O)Nc1c2c(nn1-c1ccc(OC)cc1)CSC2	1.4	-16	/

As a short view, part of the list above.
SMILES	TRPML1 ag	TRPML1 inh	TRPV1 PAM
COc1ccc(-n2ccn(CC(=O)Nc3ccc(C)c(C)c3)c(=O)c2=O)cc1OC	-0.1	34	/
COc1ccc(CC(=O)NCC(c2cccs2)S(=O)(=O)c2ccc(Cl)cc2)cc1 (configuration not stated)	0.1	21	/
O=C(NCc1ccco1)c1ccc2c(c1)N(Cc1cccc(Cl)c1)C(=O)c1ccccc1S2=O (configuration not stated)	2.2	-6	/
CCN1CCN(CCCNC(=O)c2cc3c(s2)-c2c(C)cccc2OC3)CC1	1.4	-15	/
O=C(CC1N=C2c3ccccc3N=C(SCc3ccc(F)cc3)N2C1=O)NC1CCCCC1 (configuration not stated)	2.2	-5	/
CCCNC(=O)C1CCC(Cn2c(=O)c3sccc3n(CC(=O)NCc3ccccc3)c2=O)CC1 (configuration not stated)	1.3	-6	/
COc1ccc(CCNc2nc(SCc3ccccc3Cl)nc3ccccc23)cc1OC	2.9	5	/
Cc1ccc(C)c(NC(=O)Cn2cc(C(=O)c3ccco3)c3ccccc32)c1	0.2	-14	/
Cc1[nH]n2c(=O)cc(-c3ccc(Cl)cc3)nc2c1-c1ccccc1	0.6	15	/
COc1cc(C(c2c(C)[nH][nH]c2=O)c2c(C)[nH][nH]c2=O)ccc1OC(=O)c1ccccc1F	-0.5	-8	/
CCc1nnc(NC(=O)CSc2nc3c([nH]c4ccccc43)c(=O)n2-c2ccc(OC)cc2)s1	2.3	34	/
CCOCCCNC(=O)C(=O)Nc1c2c(nn1-c1ccc(OC)cc1)CSC2	1.4	-16	/

Compound activity from PubChem BioAssay.

Not all compounds are listed; rates above refer to the full screens.
